# Choline anaer gr = choline-fed anaerobic bacterial growth inhibition. actives 0.2% (n = 55,000). Gram-negative bacterium anaerobic choline minimal medium, absorbance growth; active compounds read low; many inactives read as strong as hits in the columns shown. calls only. AID 1963822;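 active = growth z-score on choline under -2 at 7 or 20 h with little or no fall on glycerol, limits in tiers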;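 also: stock transfer was 300 nL into about 50 µL; the organism is E. coli; final concentration not given here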
# Choline anaer gr early = further read-out of Choline anaer gr, marked with its call; z-score; measured here: choline growth z-score, timepoint 1;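 score of optical density at 7 h as mean of two plates; lower means less growth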
# Numbers without * were called inactive; i = inactive. Only part of the results is shown. The share of hits here may be higher or lower than overall.
# Start of the data: the first 2 records, ahead of the listing:
Molecule	Choline anaer gr	Choline anaer gr early
Clc1ccc(Cl)c(-c2ccc(CNCC3CCCO3)o2)c1 (stereo unspecified)	i	-1.1
Brc1ccc(-c2csc(-c3nc(-c4ccccc4)cs3)n2)cc1	i	-0.35

# This part in full, from the first entry:
Molecule	Choline anaer gr	Choline anaer gr early
Clc1ccc(Cl)c(-c2ccc(CNCC3CCCO3)o2)c1 (stereo unspecified)	i	-1.1
Brc1ccc(-c2csc(-c3nc(-c4ccccc4)cs3)n2)cc1	i	-0.35
COCCN(Cc1ccc(C)cc1)Cc1cc(=O)n2nc(C3CC3)sc2n1	i	-0.39
OC(CN1CCN(c2ccccn2)CC1)c1ccc2c(c1)OCO2 (stereo unspecified)	i	-1
CN(C)C1=Nc2ncccc2Oc2ccccc21	i	0.18
CCn1c(=O)c(=O)n(CC)c2cc(N3CCCCC3)c(NC(=O)CN3CCCC3)cc21	i	0.07
CCCC(=O)N(Cc1nc2nc(C)cc(C)n2n1)c1cccc(Cl)c1	i	-0.12
CCCn1c(C)ccc(-c2noc(CCC(=O)NCCc3ccccc3)n2)c1=O	i	0.45
COc1ccc(OC)c(NC(=O)Nc2nc3c(s2)CN(S(=O)(=O)c2ccccc2)CC3)c1	i	-0.83
COc1ccccc1NC(=O)CSc1nc2ccccc2n2c(C)nnc12	i	-0.36
Nc1ccc(-c2ccc3ncc4ccc(=O)n(-c5cccc(C(F)(F)F)c5)c4c3c2)cn1	i	0.39
Cc1ccc(-c2nc(C)c(C(=O)N3CCC(CC(=O)NCc4ccccc4)CC3)s2)cc1	i	-0.19
COc1ccc(NC(=O)c2nnc(C3CCN(C(=O)c4ccccc4F)CC3)s2)cc1	i	-0.96
COc1ccc(CCNC(=O)C2CCCN(c3nc4ccc(Br)cc4[nH]3)C2)cc1OC (stereo unspecified)	i	-0.04
CCOC(=O)c1cc(C(=O)Nc2cc(OC)ccc2OC)c(=O)[nH]c1C	i	0.45

# Carrying on.
Molecule	Choline anaer gr	Choline anaer gr early
Cc1ccc(-c2csc3c2ncn2c(=O)n(CC(=O)Nc4ccc5c(c4)OCO5)nc32)cc1	i	-1
CC(C)C(=O)N1CCc2c(c(C(=O)N3CCC(C(=O)NC4CCCCC4)CC3)nn2C)C1	i	-0.05
O=C(CSc1nc2c(c(=O)n1CCc1ccccc1)SCC2)N1CCC(Cc2ccccc2)CC1	i	-0.65
O=C(Nc1ccc(SCc2nnc(-c3ccccc3)o2)cc1)Nc1ccc(F)c(Cl)c1	i	0.45
CCc1nnc(NC(=O)COc2ccccc2-c2nc(C(C)C)no2)s1	i	0.26
O=C1C(=O)N(C2CCN(C(=O)c3ccc(Cl)cc3)CC2)CCN1Cc1ccc(F)cc1	i	-0.52
CCn1c2c(c3cc(OCC(C)C)ccc31)CCCC2=O	i	-1.9
O=C(CSc1nnc(-c2cccnc2)o1)N1CCCc2ccccc21	i	-0.54
O=S(=O)(Nc1ccc(N2CCOCC2)cc1)c1ccc(-c2nnc(C3CCC3)o2)o1	i	1.1
CCc1cc2c(Nc3ccc(F)c(Cl)c3)ncnc2s1	i	-1.3
CCN(CC)CCOc1ccc(Nc2ncc3cc(-c4c(Cl)cccc4Cl)c(=O)n(C)c3n2)cc1	i	-2
O=C(CN1C(=O)CCc2cc(Br)ccc21)N1CCN(c2ccccn2)CC1	i	-1.2
CCCS(=O)(=O)N1CCCC1c1cc(CC)no1 (stereo unspecified)	i	-0.62
CCc1nc(-c2csc(S(=O)(=O)Nc3ccc(S(N)(=O)=O)cc3)c2)no1	i	0.13
CC(=O)N(Cc1ccccc1)c1nc2ccccc2n(CC(=O)Nc2cc(C)ccc2C)c1=O	i	-0.35

# The results go on.
Molecule	Choline anaer gr	Choline anaer gr early
CC(C)C(C(=O)Nc1ccc(F)c(Cl)c1)N1Cc2ccccc2C1=O (stereo unspecified)	i	-0.72
O=C(Nc1ccccc1)N1CCN(c2nc(-c3ccccc3)ns2)CC1	i	0.33
COc1ccc(-c2noc(-c3cccnc3NCC3CCCO3)n2)cc1 (stereo unspecified)	i	0.34
CCOc1ccc2oc(C)c(C(=O)Nc3ccc(C)cc3C)c2c1	i	2.4
O=c1[nH]c(SCc2nc3ccccc3[nH]2)nc2nc[nH]c12	i	-0.56
N#C/C(=C\c1ccc(O)c(O)c1)C(=O)NCCCNC(=O)/C(C#N)=C/c1ccc(O)c(O)c1	i	0.31
NC(=O)C1CCN(C(=O)CN2C(=O)C3CCCCN3c3ccc(C(=O)N4CCCC4)cc32)CC1 (stereo unspecified)	i	0.41
Cc1ccccc1OCC(=O)Nc1cc2c(cc1SC(C)C)n(C)c(=O)n2C	i	-1.3
COc1ccc(-c2noc(-c3cn(Cc4ccc(NC(=O)Cc5ccccc5)cc4)cn3)n2)cc1OC	i	-0.76
COc1ccc2nc(NC(=O)Nc3ccc(C)cc3Cl)sc2c1	i	1.4
CCc1noc2nc(C)nc(N3CCCC(C(=O)NC4CC4)C3)c12 (stereo unspecified)	i	0.2
CCn1cc(C(C)NC(=O)c2cc(-c3cccc(C)c3)nc3ccccc23)c(C)n1 (stereo unspecified)	i	0.74
COc1cccc(-c2noc(N3CCCC3)n2)c1	i	-1.7
COc1ccc(N2CC(c3nc4ccccc4n3CC(O)COc3ccccc3)CC2=O)cc1 (stereo unspecified)	i	1.2
CCOc1ccc(NC(=O)c2ccnc(N3CCC(C(=O)Nc4ccc(F)cc4)CC3)c2)cc1	i	-0.23

# Further records
Molecule	Choline anaer gr	Choline anaer gr early
CN1C(=O)Cc2cc(S(=O)(=O)N(C)CCc3noc(C4CCCCC4)n3)ccc21	i	-0.22
CC(C)(C)CC(C)(C)c1ccc(OCOCCOCCO)c(Cc2cc(C(C)(C)CC(C)(C)C)cc(Cc3cc(C(C)(C)CC(C)(C)C)ccc3OCOCCOCCO)c2OCOCCOCCO)c1	i	0.17
Cc1ccc2c(c1)C(Cc1oc3c(C)cccc3c1C)C(=O)N2 (stereo unspecified)	i	0.45
O=C(c1ccc(-c2nc(-c3ccc(F)cc3)no2)cc1)N1CCN(Cc2ccc3c(c2)OCO3)CC1	i	1.3
Cc1ccc(NC(=O)C2CCCN(S(=O)(=O)c3cccc4cccnc34)C2)cc1C (stereo unspecified)	i	0.67
CCOc1ccc(NS(=O)(=O)c2cc(-c3c(C)noc3C)ccc2C)cc1	i	-0.56
Cc1nc2ccccc2n1CCNC(=O)COc1ccccc1	i	-0.95
CC1CCN(S(=O)(=O)c2ccc3c(c2)N(CC(=O)N(C)c2ccccc2)C(=O)CC(C)S3)CC1 (stereo unspecified)	i	1.3
CCC(=O)N1CCC(c2nc3ccccc3o2)CC1	i	-1.2
O=C(Nc1cc(F)ccc1F)N1CCC2(CC1)Nc1ccccc1-n1cccc12	i	0.35
Cc1nc2n(n1)C(C(=O)Nc1ccc(F)cc1)CC(=O)N2 (stereo unspecified)	i	-1.8
CCn1c(SCC(=O)N2CCc3ccccc32)nc(=O)c2c(C(=O)OC)cc(C3CC3)nc21	i	0.37
O=C(NC(=NCc1ccncc1)Nc1ccc2c(c1)OCO2)c1cccc(Br)c1	i	1.1
CC(C)NC(=O)c1nsc(C(=O)NCC2CC2)c1N	i	-2.7
Cc1ccc(NS(=O)(=O)c2cn(C)cn2)cc1F	i	-1.2

# (list continues)
Molecule	Choline anaer gr	Choline anaer gr early
CCC(C(=O)N1CCN(C)CC1)N1C(=O)CCCc2ccccc21 (stereo unspecified)	i	0.21
C#CCOc1ccc(C2Nc3ccc(Cl)cc3[C@H]3OCCC[C@@H]23)cc1 (stereo partly specified)	i	0.51
Cc1ccc(-c2noc(CSc3ccc(-c4ccc5c(c4)OCO5)nn3)n2)cc1C	i	0.78
O=C(c1ccsc1)N1CCC(Nc2ncnc3c2CCC3)CC1	i	-0.01
O=C(c1cnc2ccc(F)cc2c1Nc1ccc(F)c(Cl)c1)N1CCCCC1	i	0.6
COc1ccc(NC(=O)C2CCN(S(=O)(=O)c3cc(-c4noc(C)n4)sc3C)CC2)cc1OC	i	2
CCCCCS(=O)(=O)CCCCCCCCCCn1c(-c2ccc(O)cc2)c(C)c2cc(O)ccc21	i	1
CC(NC(=O)c1cc(-c2ccc(F)cc2)nc2n[nH]c(-c3ccccc3)c12)c1ccccc1 (stereo unspecified)	i	0.09
O=C(CSc1ncnc2nc(N3CCCC3)sc12)Nc1ccccc1Br	i	0.25
CCCCCCCC/C=C\CCCCCCCC(=O)OC[C@H](CO)OC(C)=O	i	0.34
CC(=O)N1CCCc2cc(S(=O)(=O)N3CCCC(C(=O)NCC4CCCO4)C3)ccc21 (stereo unspecified)	i	0.51
CCn1c(=O)c(N2CCC(C(=O)NCCc3c[nH]c4ccc(C)cc34)CC2)nc2cccnc21	i	-0.49
Cc1cc2nc(COC(=O)CSc3ccccc3)cc(=O)n2o1	i	0.53
O=C(Nc1ccc(F)c(Cl)c1)Nc1nc(-c2ccccc2)cs1	i	-0.53
COc1ccc(N2CC(c3nnc(NC(=O)Cc4ccccc4Cl)o3)CC2=O)cc1 (stereo unspecified)	i	-0.97

# (cont.)
Molecule	Choline anaer gr	Choline anaer gr early
Cc1cc(Nc2cccc(Cl)c2)nc2ccc(NC(=O)c3ccc(=O)[nH]c3)cc12	i	-0.02
CN1CCN(S(=O)(=O)C2CCS(=O)(=O)C2)CC1 (stereo unspecified)	i	0.3
O=C(CCc1nc(-c2cccnc2)no1)Nc1ccccc1Cl	i	-1.9
COc1ccc(-c2cc(C(=O)Nc3cccc(C)c3)nn2C2CCS(=O)(=O)C2)cc1 (stereo unspecified)	i	0.53
O=C(Nc1ccc(-c2nc3cc(Cl)ccc3o2)cc1)c1cccc(-n2cnnc2)n1	i	-0.12
CS(=O)(=O)N1CCN(c2ncnc3c2nnn3-c2ccccc2)CC1	i	-0.03
COc1ccc(-c2cnn3c(SCC(=O)N4CCc5ccccc54)cc(C)nc23)cc1OC	i	0.06
O=S(=O)(c1cn(Cc2noc(-c3ccccc3Br)n2)cn1)N1CCCCC1	i	0.23
COc1ccc(C2c3c(n(C)c4ccccc34)C(=O)N2CC(=O)NCc2ccccc2)cc1 (stereo unspecified)	i	-0.87
Clc1ccc(OCc2nnc3sc(-c4ccc5ccccc5n4)nn23)cc1	i	0.62
C=CCn1cc(C(=O)OC)c(=O)c2cc(S(=O)(=O)N3CCC(C)CC3)ccc21	i	0.89
O=C(NC1CC1)C1CCN(c2cc(-c3ccccc3)ncn2)CC1	i	0.28
CCNc1cc(C)nc(Nc2ccc(NC(=O)C(C)(C)C)cc2)n1	i	0.32
CCn1ccc(C(=O)N2CCCC2c2cc(C)no2)n1 (stereo unspecified)	i	-0.22
Cc1ccc(-c2nc(CNC(=O)CCN3C(=O)c4ccccc4C3=O)no2)cc1	i	0.03

# Nothing new here: 6 of the compounds above.
Molecule	Choline anaer gr	Choline anaer gr early
Cc1cc(Nc2cccc(Cl)c2)nc2ccc(NC(=O)c3ccc(=O)[nH]c3)cc12	i	-0.02
CN1CCN(S(=O)(=O)C2CCS(=O)(=O)C2)CC1 (stereo unspecified)	i	0.3
O=C(CCc1nc(-c2cccnc2)no1)Nc1ccccc1Cl	i	-1.9
COc1ccc(-c2cc(C(=O)Nc3cccc(C)c3)nn2C2CCS(=O)(=O)C2)cc1 (stereo unspecified)	i	0.53
O=C(Nc1ccc(-c2nc3cc(Cl)ccc3o2)cc1)c1cccc(-n2cnnc2)n1	i	-0.12
CS(=O)(=O)N1CCN(c2ncnc3c2nnn3-c2ccccc2)CC1	i	-0.03

# Following part:
Molecule	Choline anaer gr	Choline anaer gr early
CCN(Cc1ccccc1)c1ccc(NC(=O)c2ccccc2C)cc1C(=O)O	i	-1.1
Cc1nnc(-c2coc(S(=O)(=O)N3CCN(C4CCCCC4)CC3)c2)o1	i	-0.08
COc1ccc(-c2c(C)nn3c4c(cnc23)C(=O)CC(c2ccc(C)cc2)C4)cc1 (stereo unspecified)	i	0.39
COCCNC(=O)NC1COc2ccccc2C1 (stereo unspecified)	i	-1
O=S(=O)(c1ccccc1)N1CCC2(CC1)Nc1cc(F)ccc1-n1cccc12	i	-1.5
Cc1ccc(NC(=O)N2Cc3cccn3-c3ccccc32)c(Cl)c1	i	1.7
CN(C)S(=O)(=O)c1ccc2c(c1)N(CC(=O)N1CCc3ccccc3C1)C(=O)C1CCCCN21 (stereo unspecified)	i	-0.28
CCN(CC)C(=O)Cn1c(=O)c2ccccc2n2c(=S)sc(-c3cccc(F)c3)c12	i	0.44
Cc1cccc(N2CCN(S(=O)(=O)c3ccc(-c4nnc(C5CCC5)o4)o3)CC2)c1	i	1.1
C=CCNc1oc(-c2ccc(S(=O)(=O)N3CCCCC3)cc2)nc1C#N	i	-0.11
Cc1nn2c3c(cnc2c1-c1ccccc1)C(=O)CC(/C=C/c1ccccc1)C3 (stereo unspecified)	i	-0.15
Cc1cc(N2CCC(C)CC2)nc2ccc(NC(=O)CCC(=O)N3CCC(Cc4ccccc4)CC3)cc12	i	1.3
Cc1ccccc1NC(=O)NCCc1c[nH]c2ccccc12	i	-0.02
CCOc1ccc(-c2noc(Cc3nc(-c4ccc5c(c4)OCO5)cs3)n2)cc1	i	0.68
O=C(c1ccc2c(c1)CCCN2S(=O)(=O)c1ccc(Cl)cc1)N1CCN(c2ccccc2)CC1	i	2.1

# Next section:
Molecule	Choline anaer gr	Choline anaer gr early
CCCNC(=O)c1c(-c2ccccc2)nc2n1CCS2(=O)=O	i	-1.6
COc1cc(OC)c(NC(=O)c2nc(Nc3ccccc3)c3ccccc3n2)cc1Cl	i	-0.33
Cc1nn(-c2ccc(-c3ccccc3)nn2)c(C)c1S(=O)(=O)N(C)Cc1ccccc1	i	0.91
CC(=O)Nc1ccccc1-c1nnc(SCC(=O)Nc2ccccc2)[nH]c1=O	i	-1.7
CCc1ncc(C(=O)Nc2ccc(OC)c(OC)c2)c(C)n1	i	-1.7
